# Screening results: PubChem BioAssay, National Center for Advancing Translational Sciences (NCATS)
# Rango dissoc inh: inhibition of RanGTP-driven Rango-importin beta dissociation; O95149+P62826; Biochemical FRET Rango-importin beta, RanGTP-induced dissociation; Potency, µM (highest dose often 46.1 µM), inactives show top-dose activity change, negative = inhibition; 340,000 tested, 0.071% active; AID 540253; active means falling FRET ratio curve, often poorly fitted, with flat reads before Ran was added; inconclusive means other falling curves, or compound fluorescence or quenching; inactive means flat or rising ratio curve;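 also: potency is read from the fitted curve at half-maximal effect; % of control where 0% means no effect; nearly all actives have a fitted effect of over 45% in size; -100% = wells without RanGTP and RCC1; the record marks most hits as doubtful in a second field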
#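 Rango (0.1 uM)–importin beta (0.25 uM) complex; RanGTP-RCC1 trigger; 45 min RT; CFP/YFP FRET read.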
# GLA inh pH 4.5: inhibitors of human alpha-galactosidase A at pH 4.5 | purified enzyme, 4-MU-alpha-Gal fluorescence, pH 4.5 | activity change, negative = inhibition, % at 105 µM | 230,000 tested, under 10 active; inconclusive = small, poorly fitted or top-dose-only inhibition, or a rising curve; inactive = flat fitted curve, though single readings scatter; no compound was filed as active;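 also: 0% = full activity with enzyme and -100% = basal without enzyme; dose as in the result columns while the protocol names 77 µM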
# Rango-impB inh: prevents formation of the Rango-importin beta complex; Q14974; Rango CFP/YFP FRET sensor + importin beta, 45 min; Potency, µM (highest dose often 92.2 µM), inactives show at the highest dose inhibition of complex formation; 340,000 tested, 0.031% active; AID 540263; active = rising FRET ratio curve, often small or poorly fitted; inconclusive = mostly compound fluorescence or quenching in the first reads; inactive = flat curves in all reads;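 also: potency is read from the fitted curve at half-maximal effect; 0% = DMSO wells and 100% = buffer wells lacking importin beta; nearly all actives have a fitted effect of over 15% in size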
# Target sequence (Q14974 whole entry, looked up): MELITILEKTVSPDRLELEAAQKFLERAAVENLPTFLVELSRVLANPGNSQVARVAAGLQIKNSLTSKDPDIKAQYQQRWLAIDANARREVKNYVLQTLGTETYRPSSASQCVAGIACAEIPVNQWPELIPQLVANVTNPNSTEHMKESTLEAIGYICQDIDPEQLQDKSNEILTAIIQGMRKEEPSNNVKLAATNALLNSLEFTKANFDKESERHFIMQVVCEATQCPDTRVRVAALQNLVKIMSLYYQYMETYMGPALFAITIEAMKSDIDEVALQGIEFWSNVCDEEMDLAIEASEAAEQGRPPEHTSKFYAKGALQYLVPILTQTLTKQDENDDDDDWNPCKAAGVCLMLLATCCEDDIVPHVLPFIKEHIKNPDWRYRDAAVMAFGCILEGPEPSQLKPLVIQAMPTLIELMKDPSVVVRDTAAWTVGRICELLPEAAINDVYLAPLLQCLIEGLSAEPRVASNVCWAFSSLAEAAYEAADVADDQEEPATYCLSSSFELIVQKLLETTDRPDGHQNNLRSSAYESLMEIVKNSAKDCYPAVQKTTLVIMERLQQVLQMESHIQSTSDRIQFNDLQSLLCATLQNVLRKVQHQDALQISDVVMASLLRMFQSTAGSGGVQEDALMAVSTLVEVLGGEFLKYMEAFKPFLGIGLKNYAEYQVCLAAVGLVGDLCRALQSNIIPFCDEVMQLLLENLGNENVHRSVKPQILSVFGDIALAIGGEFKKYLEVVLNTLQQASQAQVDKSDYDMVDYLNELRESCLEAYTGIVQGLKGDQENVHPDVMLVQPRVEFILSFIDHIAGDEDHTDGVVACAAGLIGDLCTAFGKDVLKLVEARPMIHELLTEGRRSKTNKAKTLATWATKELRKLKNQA
#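 FRET biosensor (snurportin 1 IBB flanked by EYFP and cerulean), 50 nM, with compound 5 min, then 0.125 microM importin beta in PBS, 1 mM DTT, 0.02% Tween-20, 0.1% BSA. CFP/YFP ratio read after 45 min at room temperature; pre-read flags interference.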
# miR-21 FLuc: raises the signal of a miR-21 reporter. Potency, µM (highest dose often 38.3 µM), for inactives: top-dose reporter change, positive = more light. 340,000 tested, under 10 active. HeLa miR-21 FLuc reporter, luciferase, 48 h. AID 2288; active = well fitted rising curve with a large enough effect; inconclusive = small, poorly fitted or top-dose-only effect; inactive = no such curve, though single readings can be large or run the other way;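 also: % of control where 0% means no effect; miR-21 action dims this reporter so a rising signal means less miR-21 action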
#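 Luminescence from a firefly luciferase reporter carrying a miR-21 binding site downstream, stably expressed under a CMV promoter in HeLa cells that make miR-21 endogenously, reports miRNA modulation after 48 h compound exposure up to approximately 40uM final.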
# * marks the source's active call; other numbers are inactive results; ? = inconclusive; · = not tested or not shown. This is a subset, so the mix of outcomes need not match the whole.
Rango dissoc inh,GLA inh pH 4.5,Rango-impB inh,miR-21 FLuc,smiles
-1%,·,0.6%,·,CC(C)(c1ccc(O)c([N+](=O)[O-])c1)c1ccc(O)c([N+](=O)[O-])c1
2%,7,0.7%,-3%,CC(C)OC(=O)Cn1c(=O)oc2ccccc21
-9%,13,0.4%,2%,CC(C)CNC(=S)N1CCC(C(=O)c2ccc3c(c2)OCCO3)CC1
4%,-7,1.0%,-5%,Cc1nn(C)cc1C(C(=O)NC1CCCCC1)N(C(=O)Cc1cccs1)c1ccc(Cl)cc1 (configuration not stated)
1%,5,0.1%,-24%,COc1ccc(NC(=O)CN(C)CC(=O)Nc2ccc(Cl)cc2[N+](=O)[O-])cc1
1%,·,-2.3%,-4%,COc1cccc(NC(=O)CCC2CCN(Cc3nccs3)CC2)c1
26%,-13,-1.5%,-2%,Cc1csc(/N=C/c2ccc([N+](=O)[O-])cc2)n1
?,·,?,-1%,NNC(=O)c1oc2nc(-c3ccccc3)cc(-c3ccccc3)c2c1N
1%,·,?,-4%,CSCCC(NC(=O)COc1ccccc1)C(=O)N1CCCCC1 (configuration not stated)
11%,·,-0.3%,-19%,Cc1cc(=O)[nH]c(N/N=C/c2cccc(Br)c2)n1
0%,·,-5.1%,·,CN(C)S(=O)(=O)c1ccc(N2CCCC2)c(C(=O)Nc2ccccc2)c1
-9%,5,2.0%,-5%,CCn1c(SCC(=O)N/N=C/C=C/c2ccccc2[N+](=O)[O-])nnc1-c1ccccc1
-9%,-7,1.0%,-4%,Nn1c(Cc2ccc(F)cc2)n[nH]c1=S
0%,7,-0.2%,-1%,CCOC(=O)c1cnc(SC)nc1NCCOC
-1%,5,-4.6%,2%,O=C(CCn1c(=S)oc2ccccc21)NCCC1=CCCCC1
4%,·,1.5%,10%,COc1ccc(Nc2nc(N)c([N+](=O)[O-])c(NC3CCCCC3)n2)cc1
25%,·,-0.8%,-5%,NC(=O)c1ccc(OCC2CCCO2)cc1 (configuration not stated)
1%,·,-2.0%,·,COc1ccc(C2=CSC3=NCCN23)cc1Br
-1%,·,-0.9%,·,COc1ccc(CC(=O)OCC(=O)N2CCCc3ccccc32)cc1OC
14%,6,-0.8%,2%,Cc1cc(C)n2nc(C(=O)OCCOc3ccc(F)cc3)nc2n1
16%,0,-0.8%,-8%,CCCn1cc(S(=O)(=O)CC(=O)NC2CCCCC2)c2ccccc21
-2%,0,-1.7%,0%,CCCC1C2C(=O)N(c3ccccc3)C(=O)C2ON1c1ccccc1 (configuration not stated)
0%,0,4.1%,8%,COC(=O)c1ccc(NC(=O)CSc2nnc(COc3ccc4c(c3)CCCC4)o2)cc1
-12%,·,3.2%,·,COc1ccc(S(=O)(=O)N2CCOC23CCN(S(=O)(=O)c2ccc(Cl)cc2)CC3)cc1
-3%,·,0.7%,·,CCCC(C)C1c2c(c(C)c(C)oc2=O)Oc2c(C)c(C)oc(=O)c21 (configuration not stated)
-1%,-10,0.3%,4%,Cc1ccc(NC2SC(=O)N(Cc3cccc(C(=O)O)c3)C2=O)cc1 (configuration not stated)
-18%,6,?,-28%,Cc1ccc(-c2nnn3c2nc(Cl)c2ccccc23)cc1
?,2,-4.6%,-4%,CC1CN(Cc2nc3c(c(=O)n(C)c(=O)n3C)n2Cc2cccc(Cl)c2)CC(C)O1 (configuration not stated)
4%,-3,-1.2%,0%,CCOc1cc(C(=O)Nc2ncccn2)cc(OCC)c1OCC
2%,12,0.9%,10%,CCOc1cc(OCC)nc(S(C)(=O)=O)n1
2%,-14,1.4%,1%,COc1ccc(-n2nc(C(=O)NCC(=O)NCc3ccco3)c3ccccc3c2=O)cc1Cl
7%,2,-0.7%,-5%,O=C(CSc1nnc(-c2ccc(OC(F)F)cc2)o1)NCc1cccs1
8%,-6,-3.0%,-11%,COc1ccc(OCCOCCOc2ccc(C)cc2[N+](=O)[O-])cc1
-15%,-2,-0.5%,4%,O=C(Oc1cccc(N2C(=O)C3C4c5ccccc5C(c5ccccc54)C3C2=O)c1)c1ccco1 (configuration not stated)
-7%,3,-6.1%,-20%,Cc1ccc(NC(=S)N2CCCC(CO)C2)c(C)c1 (configuration not stated)
-1%,·,0.5%,·,Cc1ccc(S(=O)(=O)N2CCN(S(=O)(=O)c3ccccc3Br)CC2)cc1
8%,·,-2.6%,·,CN(CC(=O)NNC(=O)CNC(=O)c1ccccc1Cl)S(=O)(=O)c1ccc(Cl)cc1
7%,3,-1.7%,-35%,CCOC(=O)Nc1ccc2c(CN3C(=O)NC(CC)(CC)C3=O)cc(=O)oc2c1
6%,-11,4.6%,-1%,O=C1CC(NC(=O)C(F)(F)F)=NN1c1ccccc1
-1%,·,-3.9%,-1%,CCCNc1c(NS(=O)(=O)c2ccc(C)c(C)c2)c(=O)oc2ccccc12
-18%,-4,1.6%,0%,Cc1cc(NC(=O)c2c([N+](=O)[O-])cnn2C)no1
·,8,·,0%,Cc1ccc(-c2nnc(SCC(=O)n3c4c(c5ccccc53)CCCC4)o2)cc1
3%,·,-2.2%,·,Cc1ccc(S(=O)(=O)C(NC(=O)c2ccccc2)=C(Cl)Cl)cc1
10%,9,4.0%,-14%,O=C(Nc1ccccn1)C12CC3CC(CC(C3)C1)C2
0%,·,-1.9%,-5%,CS(=O)(=O)N(CC(=O)Nc1ccccc1C(=O)N1CCOCC1)c1ccc(F)c(Cl)c1

# Two compounds picked at random from those above, as already listed:
Rango dissoc inh,GLA inh pH 4.5,Rango-impB inh,miR-21 FLuc,smiles
-12%,·,3.2%,·,COc1ccc(S(=O)(=O)N2CCOC23CCN(S(=O)(=O)c2ccc(Cl)cc2)CC3)cc1
6%,-11,4.6%,-1%,O=C1CC(NC(=O)C(F)(F)F)=NN1c1ccccc1

# Next part
Rango dissoc inh,GLA inh pH 4.5,Rango-impB inh,miR-21 FLuc,smiles
-4%,1,7.2%,4%,CCc1ccc(NC(=O)CSc2nc3[nH]ncc3c(=O)[nH]2)cc1
2%,1,1.1%,0%,Cc1nc(-c2ccncc2)sc1C(=O)Nc1ccc(Cl)cc1
-11%,-5,-2.6%,-5%,CC1CC(C)CN(C(=O)CCCn2c(=S)[nH]c3ccccc3c2=O)C1 (configuration not stated)
2%,10,-2.7%,-3%,CC(C)=CCC/C(C)=C/C=N/NC(=O)c1cccc([N+](=O)[O-])c1
-10%,·,-0.6%,·,CC[C@]12c3[nH]c4cc(CCC(=O)N(C)C)ccc4c3CCN1C(=O)[C@@H](CC(=O)NCCC1=CCCCC1)C[C@@H]2C(=O)N1CCN(C(=O)c2ccco2)CC1
6%,·,-5.2%,0%,CCC(C(=O)NCC1CCCO1)N(C(=O)c1snc(C(N)=O)c1N)c1ccc(Cl)cc1 (configuration not stated)
15%,·,-1.3%,16%,Cc1ccc(NC(=O)C(c2ccccc2)c2ccccc2)c(O)c1
-4%,0,?,-9%,N#Cc1ccsc1NC(=O)CN1CCN(Cc2ccccc2)CC1
-10%,·,-3.7%,·,Nc1ccn(CC(=O)NCCCc2ccccc2)c(=O)n1
0%,·,1.5%,-6%,Cc1nn(CC(=O)Nc2ccc(Br)cc2F)c(=O)c2cccn12
-6%,1,-1.2%,-11%,CCOc1ccc(Br)cc1S(=O)(=O)Nc1ccc(C(=O)OCC(=O)N(C)c2ccccc2)cc1
-1%,3,3.6%,0%,Cc1cccc(C(=O)N2CC3(C)CC2CC(C)(C)C3)c1 (configuration not stated)
-9%,·,0.4%,·,Cc1cc(C(=O)NNC(=O)C(CCC(N)=O)NS(=O)(=O)c2ccc(Cl)cc2)c(C)o1 (configuration not stated)
0%,·,0.8%,·,COc1ccc(CC(=O)N(C)Cc2ccc(Cl)cc2)cc1S(=O)(=O)N1CCOCC1
3%,2,0.2%,-48%,CCN(CC)c1ccc(NC(=O)/C=C\c2ccccc2Cl)cc1
-27%,5,-0.1%,4%,COC(=O)c1ccccc1NC(=O)c1cnn2c(C)cc(C)nc12
2%,2,3.1%,-25%,COc1ccc(C2CC3(CC(C)(C)NC(=O)N3)Oc3cc(O)ccc32)cc1 (configuration not stated)
2%,-10,-0.4%,1%,COc1ccc(-c2nnc(SCC(=O)O)n2C)cc1OC
0%,-3,-0.1%,-13%,Cc1nc(-c2ccc(C(F)(F)F)cc2)sc1C(=O)NN
-13%,·,2.5%,·,CC1C(=O)N2CCCc3cc(NS(=O)(=O)c4ccccc4)cc1c32 (configuration not stated)
-10%,3,0.2%,-19%,Cc1ccc(NC(=O)N2CCC(O)(c3cccnc3)CC2)cc1
4%,0,-3.1%,-1%,O=C(NCc1ccccc1)[C@@H]1CSC2c3ccccc3C(=O)N21 (some centres not stated)
-19%,·,0.9%,·,Cc1cc(NC(=O)CN2C(=O)N(C)C3(CCCCC3)C2=O)ccc1Br
-17%,5,-0.8%,-1%,CSc1ccc(C2(O)Cc3cccc[n+]3C2c2ccccc2)cc1 (configuration not stated)
10%,-12,4.2%,?,COc1cc(/C=C/C(=O)c2ccc(O)cc2)ccc1OCC#N
?,14,?,10%,Cc1ccc(S(=O)(=O)c2c(N)n(Cc3ccco3)c3nc4ccccc4nc23)cc1
-8%,3,0.7%,4%,O=C(Cc1nnc(NC(=O)Nc2ccc(F)cc2)s1)NCc1ccccc1
10%,·,-1.3%,·,CCCNC(=O)C(Cc1ccccc1F)NC(=O)c1ccc(C#N)cc1 (configuration not stated)
5%,·,-0.5%,·,CCN(CC(=O)NC(=O)NCc1ccccc1)CC(=O)Nc1cc(Cl)ccc1C
0%,·,-0.8%,·,O=C(NC1CCS(=O)(=O)C1)c1cccc(Br)c1 (configuration not stated)
-1%,·,-0.7%,-49%,COc1ccc(NC(=O)CCSc2nc(C)cs2)cc1
-14%,0,?,0%,COc1ccc([C@H]2[C@H](C(C)=O)N3N=Cc4ccccc4C3C23C(=O)OC(C)(C)OC3=O)cc1 (some centres not stated)
1%,·,?,·,CCc1cccc(C)c1NC(=O)CN1C(=O)NC(C)(CCC(C)C)C1=O (configuration not stated)
0%,·,-0.5%,8%,CCOc1ccc2[nH]c(=O)c(CN(CCCO)S(=O)(=O)c3ccc(F)cc3)cc2c1
-10%,·,0.0%,·,O=C(Cc1ccc([N+](=O)[O-])cc1)Nc1cccc(C(=O)N2CCCC2)c1
-12%,·,0.1%,17%,Cc1cc(OCC(=O)NNC(=O)c2cnccn2)cc(C)c1Cl
-16%,·,-5.1%,-59%,COc1ccc(NC(=O)c2ccc3ncsc3c2)cc1
-4%,-2,-3.5%,0%,CCN(CC)C(=O)COc1ccc2oc(C)c(C(=O)OC(C)C)c2c1
-7%,-13,-0.2%,-1%,O=C(O)CC1(CC(=O)Nc2ccc(F)cc2F)CCCCC1
1%,-3,-0.8%,1%,Cn1nc(C(F)(F)F)c(-c2cccc(C(F)(F)F)c2)c1NC(=O)c1nccnc1C(=O)O
0%,-22,-4.8%,-2%,Cc1cccc(NC(=O)C2c3ccccc3Oc3ccccc32)n1
-2%,17,3.4%,-4%,CC(=O)c1nn(-c2cccc(Br)c2)cc1C(=O)c1cccc2ccccc12
-6%,7,-0.5%,0%,CCC(C(=O)Nc1ccccc1C(=O)N1CCCC1)N1C(=O)c2ccccc2C1=O (configuration not stated)
3%,5,0.6%,3%,Cc1ccc2nc(Nc3nc(CSc4nnnn4-c4ccccc4)cc(=O)[nH]3)nc(C)c2c1
-5%,-4,13%,-3%,CCCNC(=O)c1nc(C)n(-c2cc(Cl)ccc2Cl)n1
-5%,·,2.5%,·,COc1cccc(/C=C/C(=O)OCC(=O)NC2CCCCCCC2)c1

# One compound at a time (already shown). Screens in order: Rango dissoc inh | GLA inh pH 4.5 | Rango-impB inh | miR-21 FLuc
# CCN(CC)C(=O)COc1ccc2oc(C)c(C(=O)OC(C)C)c2c1 is listed with -4% | -2 | -3.5% | 0%
# Cn1nc(C(F)(F)F)c(-c2cccc(C(F)(F)F)c2)c1NC(=O)c1nccnc1C(=O)O is listed with 1% | -3 | -0.8% | 1%
# CCOc1ccc2[nH]c(=O)c(CN(CCCO)S(=O)(=O)c3ccc(F)cc3)cc2c1 is listed with 0% | · | -0.5% | 8%
# COc1cccc(/C=C/C(=O)OCC(=O)NC2CCCCCCC2)c1 is listed with -5% | · | 2.5% | ·
# CCc1cccc(C)c1NC(=O)CN1C(=O)NC(C)(CCC(C)C)C1=O (configuration not stated) is listed with 1% | · | ? | ·
